Compound activity deposited in PubChem by National Center for Advancing Translational Sciences (NCATS).
GLA inh pH 4.5 = alpha-galactosidase A (human) inhibition, pH 4.5 | purified enzyme, 4-MU-alpha-Gal fluorescence, pH 4.5 | activity change, negative = inhibition, % at 105 µM | 230,000 tested, under 10 active | AID 1467; inconclusive = small, poorly fitted or top-dose-only inhibition, or a rising curve; inactive = flat fitted curve, though single readings scatter; no compound was filed as active;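 also: 0% = full activity with enzyme and -100% = basal without enzyme; dose as in the result columns while the protocol names 77 µM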
Rango dissoc inh = inhibitors of RanGTP-induced Rango-importin beta complex dissociation; Potency, µM (top dose mostly 46.1 µM), for inactives: at the top dose activity change, negative = inhibition; 340,000 compounds, 0.071% hits; AID 540253; Biochemical FRET Rango-importin beta, RanGTP-induced dissociation; O95149+P62826; active means falling FRET ratio curve, often poorly fitted, with flat reads before Ran was added; inconclusive means other falling curves, or compound fluorescence or quenching; inactive means flat or rising ratio curve;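 also: potency is read from the fitted curve at half-maximal effect; % of control where 0% means no effect; nearly all actives have a fitted effect of over 45% in size; -100% = wells without RanGTP and RCC1; the record marks most hits as doubtful in a second field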
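Compounds sat 5 min at room temperature with 0.1 uM Rango biosensor plus 0.25 uM importin beta, then FRET pre-read. RanGTP-RCC1 (0.6 uM Ran, 2mM GTP, 0.2 uM RCC1) added for 45 min, and the CFP/YFP post-read measured blocked complex dissociation.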
miR-21 FLuc = raises the signal of a miR-21 reporter; Potency, µM (series often up to 38.3 µM), for the others: at the highest dose reporter change, positive = more light; AID 2288; 340,000 tested, under 10 active; HeLa miR-21 FLuc reporter, luciferase, 48 h; active = well fitted rising curve with a large enough effect; inconclusive = small, poorly fitted or top-dose-only effect; inactive = no such curve, though single readings can be large or run the other way;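 also: % of control where 0% means no effect; miR-21 action dims this reporter so a rising signal means less miR-21 action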
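HeLa miR-21-FLuc reporter line, endogenous miR-21; 2000 cells/well in DMEM/10% FBS; compound titration up to ~40uM final, 48 h, 37 degree Celsius; luciferase detection reagent, 15 min lysis, CCD luminescence.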
Rango complex inh = inhibitors of Rango-importin beta complex formation; Q14974; Rango CFP/YFP FRET sensor + importin beta, 45 min; Potency, µM (top dose mostly 92.2 µM), for inactives: at the highest dose inhibition of complex formation; 340,000 compounds, 0.031% hits; AID 540263; active = rising FRET ratio curve, often small or poorly fitted; inconclusive = mostly compound fluorescence or quenching in the first reads; inactive = flat curves in all reads;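 also: potency is read from the fitted curve at half-maximal effect; 0% = DMSO wells and 100% = buffer wells lacking importin beta; nearly all actives have a fitted effect of over 15% in size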
Target sequence (Q14974 whole entry, looked up): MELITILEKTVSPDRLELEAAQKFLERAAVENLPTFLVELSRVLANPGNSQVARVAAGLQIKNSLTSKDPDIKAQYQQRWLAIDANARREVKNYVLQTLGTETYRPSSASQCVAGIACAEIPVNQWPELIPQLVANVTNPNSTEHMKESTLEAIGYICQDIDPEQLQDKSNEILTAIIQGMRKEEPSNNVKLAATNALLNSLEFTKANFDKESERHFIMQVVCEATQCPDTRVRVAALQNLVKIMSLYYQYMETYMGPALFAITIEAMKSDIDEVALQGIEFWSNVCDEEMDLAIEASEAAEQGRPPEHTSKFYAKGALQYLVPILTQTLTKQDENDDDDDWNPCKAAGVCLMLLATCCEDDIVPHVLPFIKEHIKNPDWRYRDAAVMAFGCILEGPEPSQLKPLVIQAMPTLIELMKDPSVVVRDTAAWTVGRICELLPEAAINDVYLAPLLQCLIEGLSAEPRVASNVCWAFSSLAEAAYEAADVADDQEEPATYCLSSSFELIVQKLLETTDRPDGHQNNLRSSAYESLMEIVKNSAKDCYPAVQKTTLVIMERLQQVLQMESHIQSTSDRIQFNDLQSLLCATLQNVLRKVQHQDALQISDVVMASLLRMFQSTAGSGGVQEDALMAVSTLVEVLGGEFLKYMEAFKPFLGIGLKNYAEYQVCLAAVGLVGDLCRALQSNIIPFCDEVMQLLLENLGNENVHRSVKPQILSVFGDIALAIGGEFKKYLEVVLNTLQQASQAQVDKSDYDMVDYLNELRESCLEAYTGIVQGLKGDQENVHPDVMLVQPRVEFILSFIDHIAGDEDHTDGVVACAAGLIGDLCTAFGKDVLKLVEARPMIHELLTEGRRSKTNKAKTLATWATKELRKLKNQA
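FRET biosensor Rango (snurportin 1 IBB between N-terminal EYFP and C-terminal Cerulean), 50 nM in PBS/1 mM DTT/0.02% Tween-20/0.1% BSA, preincubated 5 min RT with compound; 0.125 microM importin beta added, 45 min RT, CFP/YFP FRET ratio read.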
* marks the source's active call; other numbers are inactive results; ? = inconclusive; nt = not tested or not shown; & = joins results of further samples; [ ] = remark or other dose. These rows are one share of the data, so the mix of outcomes need not match the whole.

GLA inh pH 4.5,Rango dissoc inh,miR-21 FLuc,Rango complex inh,structure
nt,?,nt,-4.5%,CC(C)C[C@H]1CN([C@@H](CC(C)C)CN2CCC[C@@H]2CN2C(=O)C(=O)NC[C@@H]2Cc2ccccc2)C(=O)C(=O)N1CCc1ccccc1
2,30%,-3%,1.2%,O=C(COc1ccccc1)Nc1ccc(CN2CCCCC2)cc1
nt,5%,nt,1.0%,Cc1cc(OC(=O)c2c(C)cc(OC(=O)c3c(C)cc(O)cc3O)cc2O)cc(O)c1C(=O)O
nt,7%,-5%,1.5%,COc1ccc(C2/C(=C(/O)c3ccc(C)cc3)C(=O)C(=O)N2CCCN2CCOCC2)cc1 (stereo not drawn)
-28,8%,-28%,1.9%,Cc1ccsc1/C=N/N1CCN(Cc2ccccc2)CC1
-4,-1%,0%,1.9%,CC1CCCC(NC(=O)C2CCC(CNc3c(N4CCCCC4)c(=O)c3=O)CC2)C1C (stereo not drawn)
-6,0%,-1%,0.3%,CC1(C)CC2(C)OCCN2C(=S)N1 (stereo not drawn)
nt,15%,7%,-0.6%,O=C(CN1CCc2cc3c(cc2C1)OCCCO3)Nc1c(F)cccc1F
0,-10%,-3%,4.1%,CCCc1c(O)c2ccccc2[nH]c1=O
1,-11%,-1%,-1.9%,Cn1c(Cn2nnc3ccccc32)nnc1SCC(N)=O
-2,11%,0%,4.3%,Cc1cccc(-n2c(N)cc(=O)nc2SCC(=O)Nc2cc(C)on2)c1
-12[21.1 µM],-12%,0%,1.9%,Cc1nc(N2CCN(c3ccccn3)CC2)c2c(C)c(C(=O)Nc3ccc(F)cc3)sc2n1
nt,1%,nt,-1.1%,O=C(O)C1CCN(C(=O)CSc2nnc3ccccn23)CC1
-5,12µM*,-2%,?,CCOC(=O)C(Sc1cc(-c2ccccc2)nc2ncnn12)C(C)=O (stereo not drawn)
nt,-20%,nt,-2.0%,O=S(=O)(Nc1ccc(-n2cnnn2)cc1)c1cccs1
-11,12%,-9%,-2.3%,Cc1cc(C)c2nc(SCC(=O)NCCN3C(=O)CSC3=O)cc(C)c2c1
-10,0%,1%,0.8%,CC1(CC(=O)N/N=C/c2cc([N+](=O)[O-])c(O)cc2O)OCCO1
-3,-1%,0%,3.2%,CC(C)N(C(=O)COC(=O)[C@H](C)NC(=O)c1ccco1)c1ccccc1
nt,13%,nt,-1.3%,Cc1ccc(NC(=O)COC(=O)c2cc(=O)c3cc(F)ccc3o2)cc1
11,8%,-5%,3.6%,CC(=O)NC(CCS(C)(=O)=O)C(=O)Nc1cc(C)ccc1C (stereo not drawn)
nt,0%,nt,0.2%,N#Cc1ccccc1NC(=O)c1ccccc1OCC(=O)Nc1ccc2c(c1)oc1ccccc12
-10,?,-8%,?,CCCc1cc(O)c2c(C)cc(=O)oc2c1
6,-9%,-6%,3.9%,COCCn1c(SCC(=O)c2ccc(Cl)cc2)nnc1C(C)C
-3,9%,-13%,6.6%,CCC(CC)c1nnc(NC(=O)c2ccc([N+](=O)[O-])cc2)s1
nt,-15%,-2%,2.7%,CC1CCN(Cc2cc(=O)oc3ccc(C(C)C)cc23)CC1
2,-20%,7%,0.9%,Cc1noc(-c2ccc(C(F)(F)F)cc2)c1NC(=O)Nc1ccc(Cl)cc1
15,0%,-1%,-5.2%,CC(=O)C1C(=O)CC(c2ccc(Cl)cc2)CC1=O (stereo not drawn)
nt,17%,nt,-1.4%,CCN(C(=O)CO/N=C/c1ccc(OC)cc1OC)c1c(N)n(Cc2ccccc2)c(=O)[nH]c1=O
-7,11%,-12%,-3.3%,CCC(C)(C)n1nnnc1C(c1cc2ccc(OC)cc2[nH]c1=O)N1CCN(C2CCCCC2)CC1 (stereo not drawn)
-3,-23%,-5%,-2.8%,CCOc1ccc(CNc2ccc(N3CCCC3)cc2)cc1
-7,22%,2%,-0.2%,CCCN1CCC(NC(=O)Nc2cc(Cl)ccc2OC)CC1
3,-9%,-24%,-2.3%,CC1CCN(c2ccc(NC(=O)c3ccccc3[N+](=O)[O-])cc2)CC1
7,-26%,-4%,1.0%,CCc1ccc(N(CC(=O)NC2CCCC2)S(=O)(=O)c2c(C)noc2C)cc1
13,-3%,-4%,-0.9%,O=C(c1cccnc1)N1CCN(c2c(Cl)cccc2[N+](=O)[O-])CC1
nt,-1%,-10%,0.0%,CCn1cc(Cl)c(C(=O)Nc2cccc(CN3CCOCC3)c2)n1
nt,-3%,nt,-1.5%,CC(=O)Nc1ccc(S(=O)(=O)NCCC(=O)OCc2nc(N)nc(Nc3ccccc3C)n2)cc1
3,1%,0%,0.2%,Oc1ccccc1N=Cc1ccc[nH]1
nt,3%,0%,-1.4%,CC(Sc1nnc(COc2ccc(Cl)cc2)n1-c1ccccc1)C(=O)O (stereo not drawn)
4,-1%,1%,5.4%,COc1cccc(NC(=O)c2c(C)cc(C)cc2CC(C)(C)C(=O)O)c1
1,2%,25%,?,Cc1cc(NC(=O)COC(=O)c2ccccc2S(=O)(=O)N(C)c2ccccc2)no1

Complete entries from above:
Shown for CC(Sc1nnc(COc2ccc(Cl)cc2)n1-c1ccccc1)C(=O)O (stereo not drawn) : GLA inh pH 4.5 = nt; Rango dissoc inh = 3%; miR-21 FLuc = 0%; Rango complex inh = -1.4%
Shown for COc1cccc(NC(=O)c2c(C)cc(C)cc2CC(C)(C)C(=O)O)c1 : GLA inh pH 4.5 = 4; Rango dissoc inh = -1%; miR-21 FLuc = 1%; Rango complex inh = 5.4%

The results go on.
GLA inh pH 4.5,Rango dissoc inh,miR-21 FLuc,Rango complex inh,structure
-1,1%,-1%,0.4%,CCOc1cc(OCC)cc(C(=O)O)c1
-6,0%,11%,-1.0%,CCCCCOc1ccc2oc(=O)c3c(c2c1)CCCN3C(=O)CN1CCCC(C(=O)OCC)C1 (stereo not drawn)
-12,?,12%,?,CCN(CC)c1ccc(/C=c2\sc3nc4ccccc4n3c2=O)c(O)c1
nt,23%,nt,-3.7%,O=C1CCCC/C=C\C[C@H](CC(=O)N(CCO)Cc2ccccc2)C(=O)N[C@@H](c2ccccc2)CO1
nt,-4%,-8%,-0.9%,NC1=NC(=O)C(Cc2ccc(F)cc2)S1 (stereo not drawn)
-3,-12%,-8%,-2.5%,COc1cc(C)c(C(C)C)cc1S(=O)(=O)n1ccnc1
0,16%,-1%,3.5%,CCOC(=O)Nc1cc(C(=O)OC)cc(C(=O)OC)c1
nt,2%,nt,-2.8%,Cc1cc(C(=O)Nc2cccc(S(=O)(=O)N3CCCC3)c2)c2ccccc2n1
0,-15%,17%,-0.2%,CS(=O)(=O)c1ccc2nc(NC(=O)c3ccc(S(=O)(=O)NCC4CCCO4)cc3)sc2c1 (stereo not drawn)
nt,-3%,nt,-4.2%,O=C(CN1C(=O)C2CCCCC2C1=O)Nc1nc(-c2ccc(F)cc2)cs1 (stereo not drawn)
-1,4%,0%,-0.4%,CCC[N+](CC#CCO)(CC#Cc1ccccc1)CCC
nt,-2%,-5%,-1.5%,COc1cc(NC(=O)CSCc2ccccc2)c(C(=O)O)cc1OC
-8,-1%,-2%,-1.8%,C=CCn1c(SCC(=O)NC(=O)NCC(C)C)nnc1C1CCCCC1
0,-7%,-1%,2.6%,O=C(O)c1cccc(N2C(=O)c3ccc4c5c(ccc(c35)C2=O)C(=O)N(c2cccc(C(=O)O)c2)C4=O)c1
1,nt,0%,nt,COC(=O)c1cc(-c2ccccc2)sc1NC(=O)c1cc(C)on1
-20,22%,0%,3.8%,CCOC(=O)c1ccc(NC(=O)CCNS(=O)(=O)c2ccc3c(c2)oc(=O)n3C)cc1
nt,0%,nt,-1.7%,CN(Cc1ccc(OC(F)F)cc1)C(=O)c1ccccc1Sc1ccccc1C#N
2,1%,-3%,-2.2%,O=C(Nc1c2c(nc3ccccc13)CCCC2)c1ccccc1Cl
-9,-2%,0%,-0.4%,COc1ccccc1-c1nc2n(n1)C(c1cccs1)C(C(=O)Nc1cccnc1)=C(C)N2 (stereo not drawn)
4,-15%,-33%,4.0%,CC(=O)Cc1nsc(Nc2cccc(C)c2)n1
2,-10%,7%,0.2%,O=C(COC(=O)c1ccc(-c2ccccc2)cc1)Nc1ccccc1-c1ccccc1
5,-8%,6%,-4.2%,CC1=C(C(=O)c2ccccc2)C(c2ccc(O)cc2)NC(=S)N1 (stereo not drawn)
-3,2%,-7%,0.3%,C=CCN1N=C(c2ccc(Cl)s2)CSC1=O
-15,0%,19%,0.1%,COc1ccc(CC(=O)Nc2cccc(S(=O)(=O)N3CCCCCC3)c2)cc1OC
nt,0%,nt,-2.3%,CCN(CC(=O)Nc1cc(Cl)ccc1C)C(=O)c1ccc(N2CCCC2=O)cc1
nt,1%,nt,2.4%,CCOC(=O)[C@H]1[C@H]2COc3cc(OC)ccc3[C@@H]2N2C(=O)CN(Cc3ccccc3)C(=O)[C@@]12C
4,-23%,-13%,-2.4%,O=C(/C=C\Nc1ccccn1)c1ccc(Cl)cc1
-5,-2%,-1%,0.8%,CCc1nc(SCC(=O)NCCc2ccccc2)c2c(=O)n(C)c(=O)n(C)c2n1
2,18%,0%,6.0%,COC(=O)c1ccc(/C=N/N2CCN(Cc3ccc(C)cc3C)CC2)cc1
nt,-2%,0%,-6.1%,O=C(CCC(=O)N1CCN(Cc2ccccc2)CC1)Nc1nnc(C2CCCCC2)s1
nt,?,nt,?,CCN(CC)Cc1cc(Nc2c3ccccc3nc3c4ccccc4n(C)c23)cc(CN(CC)CC)c1O
15,-18%,-8%,?,O=c1cc(CO)oc(C(Nc2cccc(C(F)(F)F)c2)c2ccccn2)c1O (stereo not drawn)
-3,1%,-12%,3.1%,CCCCNC(=O)c1ccc(NC(=O)C2CCCO2)cc1 (stereo not drawn)
-2,16%,4%,-3.5%,Cc1cccc(NC(=O)CSCc2nc3c(nnn3Cc3ccc(F)cc3)c(=O)[nH]2)c1C
7,17%,-6%,1.9%,COc1ccccc1-c1c(C)oc2c(CN3CCN(CCO)CC3)c(O)ccc2c1=O
-3,2%,2%,2.2%,Cc1ccc(C)c(NC(=O)C2CCC(C)(C(=O)O)C2(C)C)c1 (stereo not drawn)
-7,-1%,3%,-1.5%,CSC1=N/C(=C\c2cccc(F)c2)C(=O)S1
nt,10%,-2%,0.0%,CC(=O)c1ccc(S(=O)(=O)N(C)C(C)CCc2ccco2)cc1 (stereo not drawn)
-1,27%,-9%,0.1%,CC(C)Sc1nc(-c2ccccc2)cc(=O)[nH]1
-2,4%,-3%,0.1%,O=C(CSc1nnc(Cn2c(=O)sc3ccccc32)n1CCc1ccccc1)N1CCOCC1
-4,-15%,4%,0.7%,CN(CCS(=O)(=O)c1ccc(Cl)cc1)Cc1cccnc1
-3,19%,-4%&-4%,4.2%,CC(=O)c1cccc(NC(=O)CCS(=O)(=O)c2ccc(Br)s2)c1
3,-17%,-1%,1.1%,CCN(CC)S(=O)(=O)c1ccc(C(=O)OCCN2C(=O)CCC2=O)cc1
-1,-25%,0%,?,CC(C)C(C)NC(=O)CSc1nc2scc(-c3ccco3)c2c(=O)n1-c1ccccc1 (stereo not drawn)
nt,-9%,-32%,-1.2%,CC(C)C[C@@H](CSc1ccccc1)N1CCN(C)CCC1=O
nt,0%,25%,-5.0%,O=C(c1cc(C(=O)N2CCN(c3ccc(F)cc3)CC2)cc([N+](=O)[O-])c1)N1CCN(c2ccc(F)cc2)CC1
4,1%,18%,-1.0%,CCOC(=O)c1c(NC(=O)C2C3C=CC(C3)C2C(=O)O)sc2c1CCC(C)C2 (stereo not drawn)
-3,14%,10%&16%,0.4%,CCOC(=O)c1nc(Nc2ccc(C(=O)OC)cc2)c2ccccc2n1
nt,1%,nt,?,c1ccc2c(c1)CNc1ccccc1-2
0&-14&-1,2%,?,1.6%,CSc1ccc2c(c1)N(CCC1CCCCN1C)c1ccccc1S2 (stereo not drawn)
-4,12%,-6%,-0.6%,CCCCC1CCC(C(=O)N2CCOCC2)CC1 (stereo not drawn)
